PV pol inh: poliovirus RNA polymerase inhibition | 150,000 tested, 0.66% active | % elongation, % (compound at 16.7 µg/mL) | P03300 | poliovirus polymerase elongation, fluorescence polarization; active compounds read low | AID 588519; in the data active means % elongation below about 90%; further: some results filed as inactive read as strong as hits
Target sequence (P03300 1749-2209 limits assumed): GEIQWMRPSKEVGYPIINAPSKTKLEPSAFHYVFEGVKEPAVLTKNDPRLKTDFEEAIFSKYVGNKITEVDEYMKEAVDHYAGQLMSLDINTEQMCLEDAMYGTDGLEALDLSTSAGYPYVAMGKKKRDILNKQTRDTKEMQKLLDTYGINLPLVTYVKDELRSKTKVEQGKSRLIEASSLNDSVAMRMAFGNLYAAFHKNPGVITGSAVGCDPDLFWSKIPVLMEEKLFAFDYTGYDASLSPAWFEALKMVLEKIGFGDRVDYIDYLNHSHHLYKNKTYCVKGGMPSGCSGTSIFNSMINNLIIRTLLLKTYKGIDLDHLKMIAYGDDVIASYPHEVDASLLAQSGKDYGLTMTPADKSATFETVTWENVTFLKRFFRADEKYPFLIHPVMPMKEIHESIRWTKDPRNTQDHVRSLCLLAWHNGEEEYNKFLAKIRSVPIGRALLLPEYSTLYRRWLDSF
PV pol inh intensity: further read-out of PV pol inh, marked with its call; % elongation; measured here: total intensity read-out; formula for this scale not given here;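 total fluorescence in place of polarization; lower means less elongation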
The depositor's hits bear a star.

SMILES	PV pol inh	PV pol inh intensity
O=C(CSc1nc2c([nH]c3ccccc32)c(=O)n1-c1ccc(Cl)cc1)NCc1ccccc1	112	112
COc1ccccc1N1CCN(CCC(=O)Nc2cccc(F)c2)CC1	102	105
COc1ccc(NC(=O)C2CCC(CNS(=O)(=O)c3ccc(Br)s3)CC2)c(OC)c1 (centres undefined)	103	106
CCCCOc1cccc(C(=O)N2CCN(CCc3ccncc3)CC2)c1	108	102
CCOCN(C(=O)Cn1cnc2cc(C)c(C)cc21)c1c(C)cccc1CC	107	108
COc1ccccc1NC(=O)c1ccc(CN2C(=O)C(C)=C(c3ccc(C)c(C)c3)S2(=O)=O)cc1	111	106
COc1ccc(Nc2ncnc3c2nc2n3CCCC2)cc1Cl	101	97
CCOC(=O)C1=C(CN(CC)Cc2ccccc2)NC(=O)NC1c1ccc(OC)cc1 (centres undefined)	103	106
CC(C)OCCCNC(=O)c1cn(C)c2ccc(S(=O)(=O)N(C)C3CCCCC3)cc2c1=O	108	111
CCn1cc(C(=O)N(C)c2ccc(C(C)C)cc2)c2cc(OC)c(OC)cc2c1=O	102	107
O=C(NCCc1ccccc1)c1cc(Sc2cccc(Cl)c2)nc2ccccc12	114	117
O=C(NCc1ccccc1Cl)C1CCCN(c2ncnc3onc(-c4ccc(F)cc4)c23)C1 (centres undefined)	107	113
COc1cc(NC(=O)CSc2ccc(-c3sc(-c4ccccc4)nc3C)nn2)cc(OC)c1	116	112
CCC(=O)N1CCc2cc(Br)cc(S(=O)(=O)N3CCCC(C(=O)Nc4ccc(C)c(F)c4)C3)c21 (centres undefined)	103	105
CCc1ccc(-c2nc(CN3CCCC(C(=O)NCc4ccc(C)cc4)C3)c(C)o2)cc1 (centres undefined)	106	111
COc1ccc2c(c1)c1c(c(=O)n(-c3ccc(OC)c(OC)c3)c(=O)n1CC(=O)N1CCCC1)n2C	102	99
COc1cccc(-c2nn3c(=O)cc(CN4CCN(C(=O)/C=C/c5ccccc5)CC4)nc3s2)c1	110	104
COc1ccc(CCNc2nc(SCc3ccccc3F)nc3ccccc23)cc1OC	115	119
COc1ccc(CC(=O)Nc2ccc(-c3nc4ccccc4s3)cc2Cl)cc1OC	106	108
Cc1ccc(N2C(=O)C(CC(=O)Nc3cccc(F)c3)N(CCc3ccccc3F)C2=O)cc1 (centres undefined)	104	96
Cc1ccc2c(c1)N(CCCC(=O)Nc1cccc(C(F)(F)F)c1)C(=O)CO2	113	117
O=C(CN1C(=O)CCSc2ccc(S(=O)(=O)N3CCCC3)cc21)Nc1cccc(F)c1	103	107
CCn1cc(C(=O)N2CCN(c3ccc(OC)cc3)CC2)c2cc(OC)c(OC)cc2c1=O	107	109
COCCNC(=O)c1ccc2c(c1)N(Cc1ccc(C(F)(F)F)cc1)C(=O)c1ccccc1S2	113	113
Cc1ccc(F)c(NC(=O)Nc2ccc3snnc3c2)c1	113	116

Next part.
SMILES	PV pol inh	PV pol inh intensity
Cc1ccc(Cn2c(CO)cnc2SCc2cccc(F)c2)cc1	104	109
Cc1oc2ccc(NS(=O)(=O)c3ccc(F)cc3)cc2c1C(=O)O	101	98
COc1ccc2c(c1)c1c(c(=O)n(Cc3ccccc3)c(=O)n1CC(=O)NCc1ccccc1Cl)n2C	104	109
Cc1ccc(OCCOCCn2c(-c3ccc(Cl)cc3)nc3ccccc3c2=O)cc1	103	106
Cc1ccccc1-c1noc(-c2ccc(N3CCN(c4ccccc4)CC3)c([N+](=O)[O-])c2)n1	106	114
COc1ccccc1NC(=O)C1CCN(S(=O)(=O)c2ccc3[nH]c4c(c3c2)CCCCC4)CC1	104	99
COc1ccc(-n2nc(C(=O)N3CCN(c4cccc(C)c4C)CC3)c3c4ccccc4n(C)c3c2=O)cc1Cl	102	104
COc1cccc(-n2c(=O)c3sc4ccccc4c3n(CC(=O)Nc3ccc(F)cc3F)c2=O)c1	107	109
CCOC(=O)c1c(NC(=O)c2ccccc2C)sc2c1CCCC2	84*	81*
CC(=O)N1CCc2cc(S(=O)(=O)NC(CC(C)C)C(=O)NCc3ccccc3)ccc21 (centres undefined)	106	110
Cc1ccc(-c2noc(-c3cccnc3N(C)Cc3ccc(Cl)cc3)n2)cc1	110	113
Cc1ccccc1C(=O)NCc1nc(-c2ccc(Cl)cc2)no1	105	101
COc1ccc(-n2c(=O)c3ccc(C(=O)NCc4ccc(C)cc4)cc3n(CC(=O)Nc3ccc(F)cc3)c2=O)cc1	104	110
CN(C)c1ccc(CNC(=O)c2ccc3c(c2)N(C)C(=O)C2CCCCN32)cc1 (centres undefined)	109	108
Cc1cc(CN2CCN(c3ccccc3F)CC2)cs1	106	108
CCN(Cc1ccccc1)S(=O)(=O)c1cc(C(=O)Nc2cc(Cl)cc(Cl)c2)ccc1F	106	110
O=C(CN1C(=O)COc2ccc(S(=O)(=O)Nc3ccccc3)cc21)Nc1cccc(Cl)c1	111	114
CCOc1ccccc1NC(=O)CCNS(=O)(=O)c1cccc2nonc12	105	104
COc1ccc(S(=O)(=O)c2c(Nc3ccccc3F)sc(C(=O)c3cccc(OC)c3)c2N)cc1	106	109
CN(C)CCCN(C(=O)c1cccs1)c1nc2ccc(F)cc2s1	102	110
Cc1c(C(=O)OC2CCC(C)CC2)[nH]c2c1C(=O)CC(c1ccc(N(C)C)cc1)C2 (centres undefined)	104	105
Cc1ccc(-n2ncc(C(=O)NCc3ccco3)c2C2CCN(C(=O)OC(C)(C)C)CC2)cc1	110	110
COc1ccc(N2CCN(CC(O)COc3ccccc3C(C)(C)C)CC2)cc1 (centres undefined)	103	103
CCc1ccc(C(=O)N2CCC(c3nc(-c4ccc(S(=O)(=O)N5CCCC5)cc4)no3)CC2)cc1	103	107
Cc1ccc(C(=O)N2CCC(C(N)=O)CC2)cc1NC(=O)c1nsc2ccccc12	103	112

16 structures already listed, sorted by SMILES length, low to high:
SMILES	PV pol inh	PV pol inh intensity
Cc1ccc(Cn2c(CO)cnc2SCc2cccc(F)c2)cc1	104	109
CCCCOc1cccc(C(=O)N2CCN(CCc3ccncc3)CC2)c1	108	102
CCOc1ccccc1NC(=O)CCNS(=O)(=O)c1cccc2nonc12	105	104
Cc1oc2ccc(NS(=O)(=O)c3ccc(F)cc3)cc2c1C(=O)O	101	98
COc1ccc(CCNc2nc(SCc3ccccc3F)nc3ccccc23)cc1OC	115	119
CCOCN(C(=O)Cn1cnc2cc(C)c(C)cc21)c1c(C)cccc1CC	107	108
Cc1ccc(-c2noc(-c3cccnc3N(C)Cc3ccc(Cl)cc3)n2)cc1	110	113
Cc1ccc(OCCOCCn2c(-c3ccc(Cl)cc3)nc3ccccc3c2=O)cc1	103	106
CN(C)c1ccc(CNC(=O)c2ccc3c(c2)N(C)C(=O)C2CCCCN32)cc1 (centres undefined)	109	108
CCn1cc(C(=O)N(C)c2ccc(C(C)C)cc2)c2cc(OC)c(OC)cc2c1=O	102	107
O=C(NCc1ccccc1Cl)C1CCCN(c2ncnc3onc(-c4ccc(F)cc4)c23)C1 (centres undefined)	107	113
CC(=O)N1CCc2cc(S(=O)(=O)NC(CC(C)C)C(=O)NCc3ccccc3)ccc21 (centres undefined)	106	110
O=C(CSc1nc2c([nH]c3ccccc32)c(=O)n1-c1ccc(Cl)cc1)NCc1ccccc1	112	112
Cc1ccc(-n2ncc(C(=O)NCc3ccco3)c2C2CCN(C(=O)OC(C)(C)C)CC2)cc1	110	110
COc1ccc2c(c1)c1c(c(=O)n(Cc3ccccc3)c(=O)n1CC(=O)NCc1ccccc1Cl)n2C	104	109
COc1ccc(-n2nc(C(=O)N3CCN(c4cccc(C)c4C)CC3)c3c4ccccc4n(C)c3c2=O)cc1Cl	102	104

Later entries.
SMILES	PV pol inh	PV pol inh intensity
Cc1cccc(CNC(=O)CN2CC(C)Sc3ccccc32)c1 (centres undefined)	114	116
CCc1ccc(NC(=O)Cn2c(=O)n(CCc3ccccc3)c(=O)c3sc4ccccc4c32)cc1	98	102
COc1cccc(CNC(=O)Cn2c(=O)n3nc(-c4cccc(C)c4)nc3c3ccccc32)c1	103	107
Cc1ccccc1CNC(=O)Cn1nc(C)c2nn(-c3ccc(Cl)cc3)c(C)c2c1=O	105	114
Cc1cccc(-c2nc(SCC(=O)N3CCc4ccccc43)c3c(=O)n(C)c(=O)n(C)c3n2)c1	109	108
CCc1ccc(NCc2cc3cc(OC)c(OC)cc3n(CC(=O)Nc3ccc(F)cc3)c2=O)cc1	107	110
COc1ccc(N2CCN(C(=O)c3cc4cc5ccc(Cl)cc5nc4o3)CC2)cc1	109	108
Cc1cc(S(=O)(=O)Nc2ccc(-c3ccc(N4CCCCC4)nn3)cc2)c(C)cc1Cl	98	94
Cc1nc2ccc(S(=O)(=O)N(CC(=O)Nc3ccc(F)cc3)Cc3ccccc3)cc2s1	108	98
CCOc1ccc(NC(=O)c2oc3ccccc3c2NC(=O)Cc2ccc(OC)c(OC)c2)cc1	99	103
COc1ccccc1NC(=O)CN1CCN(CC(=O)Nc2ccc(F)c(F)c2)CC1	108	104
CC(=O)c1ccc(S(=O)(=O)Nc2cccc(-c3ccc(N4CCCCC4)nn3)c2)cc1	104	108
CCc1cccc(NC(=O)CN2Cc3ccccc3C2=O)c1	118	113
COc1ccc(NC(=O)Cn2cc(S(=O)(=O)c3ccccc3)c(=O)c3cc(C)ccc32)cc1Cl	103	105
CC(=O)CSc1nnc2cc(C)c3cc(C)cc(C)c3n12	102	95
CCN1CCN(C(=O)c2ccc3c(c2)N(Cc2ccc(Cl)cc2)C(=O)c2ccccc2S3(=O)=O)CC1	113	109
COc1cc(C2c3c(oc4ccccc4c3=O)C(=O)N2c2nncs2)cc(OC)c1OC (centres undefined)	105	109
Cc1cccc(Cn2cc3c(=O)n(CC(=O)Nc4cccc(C)c4C)nc-3c3cc(F)ccc32)c1	107	111
COc1ccccc1NC(=O)CC1Sc2ccc(C(F)(F)F)cc2NC1=O (centres undefined)	106	113
Cc1ccccc1NC(=O)c1c(NC(=O)C(F)(F)F)sc2c1CCCCC2	96	100
CCOc1ccccc1CNC(=O)C(CC)n1nc(C)c2c(C)n(-c3ccccc3)nc2c1=O (centres undefined)	107	113
COc1ccc(Nc2cc(C(=O)NCCCN(C)Cc3ccccc3)c3ccccc3n2)cc1	104	99
CCc1cc(C(=O)NC(C)c2ccccc2)no1 (centres undefined)	109	110
CCN(CC)c1ccc(NC(=O)CSc2nc(-c3cccs3)cc(C(F)(F)F)n2)cc1	101	97
Cc1cc2nc(-c3cccc(NC(=O)COc4ccc(C(C)C)cc4)c3)oc2cc1C	108	109

(more compounds)
SMILES	PV pol inh	PV pol inh intensity
O=C1CC(c2nnc(Cc3cccc(Cl)c3)o2)CN1c1ccccc1 (centres undefined)	103	106
COc1cccc(C2C(C(=O)Nc3ccc(Cl)cc3)=C(C)Nc3nc4ccccc4n32)c1 (centres undefined)	103	109
O=C(Nc1ccc(-c2nc3cc(Cl)ccc3o2)cc1)c1cc2ccccc2o1	49*	63*
CCc1ccc2oc(C(=O)N(Cc3cccc(Cl)c3)Cc3ccco3)c(C)c2c1	105	106
COc1cccc(CNC(=O)c2cc3ccc4cccnc4c3[nH]2)c1	102	107
Cc1ccc(NC(=O)CSc2nc3nccnc3c(=O)n2CCc2c[nH]c3ccccc23)cc1	100	96
O=C(NCCSCc1ccccc1)C1CCN(S(=O)(=O)Cc2ccccc2)CC1	111	111
COc1cccc(-c2cn3ncsc3n2)c1	105	109
COC(=O)CSc1nnc2n(-c3ccccc3)c(=O)c3c4c(sc3n12)COC(C(C)C)C4 (centres undefined)	105	97
O=C(NCc1cccnc1)C(=O)NCC(c1cccnc1)N1CCN(c2ccccc2F)CC1 (centres undefined)	103	94
COc1ccc(-c2nc3sc(CCNS(=O)(=O)c4ccccc4)c(C)n3n2)cc1	110	113
O=c1c(=O)n(-c2cccc(Cl)c2)ccn1Cc1cccc(F)c1	101	105
CCOC(=O)C1CCCN(C(=O)c2cccc(NC(=O)c3nsc4ccccc34)c2)C1 (centres undefined)	113	111
O=C(Nc1cccc(C(=O)OCc2cc(=O)n3c4c(sc3n2)CCCC4)c1)c1cccc(Cl)c1	103	110
CCc1ccc(C2c3c(-c4cc(C)ccc4O)n[nH]c3C(=O)N2Cc2cccnc2)cc1 (centres undefined)	106	106
Cc1ccc(-n2nnc3c(sc4nc(C)c(C)cc43)c2=O)cc1Cl	108	111
Clc1ccc(-c2nc3ncccn3c2Nc2ccc3c(c2)OCCO3)cc1	112	114
CCSc1ncc(Cl)c(C(=O)Nc2cccc(Cl)c2)n1	117	112
CCOc1ccc(NC(=O)CSc2nnc3scc(-c4ccccc4)n23)cc1	103	107
CCOC(=O)c1cccc(NC(=O)NC2COc3ccccc3C2)c1 (centres undefined)	106	110
O=C(Nc1c(C(=O)Nc2ccc(F)cc2)oc2ccccc12)c1ccccc1F	106	112
Cc1ccc(NC(=O)C(=O)NCCc2csc3nc(-c4ccccc4C)nn23)cc1Cl	103	107
CCOc1ccc(-c2nc(CNC(=O)NC3CCCCC3)c(C)o2)cc1	102	97
N#Cc1ccc(C(=O)NCc2ccc3c(c2)CCN3C(=O)c2ccc(F)cc2)cc1	112	112
CCc1ccc(S(=O)(=O)Nc2cccc(-c3ccc(N4CCC(C)CC4)nn3)c2)s1	107	112

Continuation.
SMILES	PV pol inh	PV pol inh intensity
CCOC(=O)c1cc2c(=O)n3ccccc3nc2n(CCCOC)c1=NC(=O)c1c(-c2c(F)cccc2Cl)noc1C	100	105
CCn1c(=O)c(=O)n(CC)c2cc(N3CCCCC3)c(NC(=O)c3ccc(Cl)cc3)cc21	90*	85*
Cc1cc(Cl)ccc1OCc1nc(-c2ccc(-n3cccc3)cc2)no1	103	103
Cc1cc(C)cc(OC(=O)c2cc(-c3ccc(Cl)cc3)on2)c1	106	102
CC1=C(C(=O)Nc2ccccc2)C(c2cccnc2)n2nc(SCc3ccccc3Cl)nc2N1 (centres undefined)	101	100
Cc1cccc(-c2nnn3c2nc(NCCC(C)C)c2ccccc23)c1	107	112
CCCc1nn2cc(-c3ccc(C)c(C)c3)nc2s1	103	98
O=C1CC(c2cccc(O)c2)c2cc3c(cc2N1)OCO3 (centres undefined)	105	107
COc1cc(NC(=O)CSc2nc3nc(C)c(Cc4ccc(C)cc4)c(C)n3n2)cc(OC)c1OC	103	105
Cc1ccc(-n2c(=O)c3c(c4cc(C)ccc4n3C)n(CC(=O)Nc3ccc(F)cc3)c2=O)cc1	107	108
Cc1ccc(C(=O)NCC(=O)OCc2cc(=O)n3ccsc3n2)cc1	108	112

Screens from PubChem BioAssay.

This is a subset; rates above refer to the full screens.
